Screening data as filed in PubChem BioAssay.
Sa growth 42C: blocks Staphylococcus aureus growth. relative growth, % (concentration not given with the values). S. aureus RN4220 growth, OD600, 20 h, 42 °C; active compounds read low. AID 720641. actives 0.53% (n = 170,000);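 active means growth at 42 °C up to 50% and 20 or more points under that at 30 °C, or under 10% at both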;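 further: 300 nL library stock went into each well; scaled to the means of positive and negative controls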
HCMV NEC inh: disrupts HCMV UL50-UL53 complex binding; HTRF UL50-UL53 interaction, normalized percent inhibition; inhibition, % (concentration not given with the values); actives 0.15% (n = 190,000);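 active means both replicates at 50% or more, plus weaker picks with an unusually low signal ratio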;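 further: stock transfer was 100 nL into about 20 µL; 0% = negative control wells and 100% = wells with untagged competitor protein; inactives centre near -12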
GIV-Gai inh: inhibitors of GIV GBA-motif binding to rat Galpha-i3; P08753; Galpha-i3/FITC-GIV peptide fluorescence polarization, 90 min; active compounds read low; scaled: aluminum fluoride 0%, vehicle 100%; percent of control (FP), % (no concentration beside the values); actives 0.42% (n = 210,000); AID 1224905;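 active means replicate mean at 85% of control or lower, very high polarization wells dropped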;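 further: wells of about 15 µL received 100 nL stock; the first replicate is given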
Target sequence (P08753 whole entry, looked up): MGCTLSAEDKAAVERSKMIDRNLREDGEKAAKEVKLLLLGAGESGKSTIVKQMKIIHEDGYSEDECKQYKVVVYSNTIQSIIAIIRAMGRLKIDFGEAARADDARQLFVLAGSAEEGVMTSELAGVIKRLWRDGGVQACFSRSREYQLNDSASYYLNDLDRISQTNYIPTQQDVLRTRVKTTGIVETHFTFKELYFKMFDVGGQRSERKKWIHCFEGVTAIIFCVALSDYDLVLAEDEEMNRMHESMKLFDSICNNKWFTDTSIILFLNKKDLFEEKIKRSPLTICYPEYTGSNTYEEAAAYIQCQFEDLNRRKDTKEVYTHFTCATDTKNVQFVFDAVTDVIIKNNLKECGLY
Sa growth 42C second temp: recorded beside Sa growth 42C, whose call it bears; relative growth, %; measured here: growth at 30 °C;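 optical density after 20 h as mean of two plates; 100% = untreated growth and lower means inhibition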
* = called active by the depositor; · = not tested or not shown; & = joins results of further samples.

SMILES | Sa growth 42C | Sa growth 42C second temp | HCMV NEC inh | GIV-Gai inh
CC(C)C(NS(=O)(=O)c1ccc2c(c1)OCCO2)C(=O)OCc1nnc(-c2ccccc2)o1 (stereo unspecified) | 72 | 67 | -40 | ·
c1ccc2c(c1)NC(c1ccc3c(c1)OCO3)S2 (stereo unspecified) | 95 | 91 | -2 | 110
CC(NC(=O)Cn1c(=O)oc2cc(S(=O)(=O)NCc3ccccc3)ccc21)c1ccccc1 (stereo unspecified) | 97 | 89 | -44 | 106
Cn1c(N)c(C(=O)COC(=O)C2CCN(S(=O)(=O)c3cccs3)CC2)c(=O)n(C)c1=O | 90 | 88 | -31 | ·
CCCCNC(=O)c1cn(C)c2ccc(S(=O)(=O)N(CC)CC)cc2c1=O | 76 | 88 | -18 | 109
CC(C)OCCCNC(=O)c1ccc2c(c1)NC(=O)c1ccccc1S2 | 129 | 79 | -42 | 104
CS(=O)(=O)c1ccccc1C(=O)Nc1ccc(C#N)cc1 | 115 | 100 | -4 | ·
CC(C)CCSc1nc(N2CCOCC2)c2c(c1C#N)CC(C)(C)OC2 | · | · | -14 | 106
COc1ccc2[nH]c(-c3ccccc3)cc2c1 | · | · | 6 | 100
C=CCN(CC=C)C(=O)COc1ccc(Cl)cc1Cl | 101 | 89 | -14 | 104
COC(=O)c1cc2oc3ccccc3c2n1Cc1ccccc1Cl | 103 | 91 | -21 | 100
Cn1c(=O)n(CCCc2ccccc2)c(=O)c2c1nc1n2CCN1c1ccc(F)cc1 | 119 | 90 | · | 101
O=C(NCc1ccc(Cl)cc1Cl)c1cccnc1OCC(F)(F)F | 102 | 94 | 3 | 103
c1ccc(N2CCN(c3nc4ccccc4[nH]3)CC2)nc1 | 90 | 65 | -17 | 99
CCN(Cc1ccccc1)C(=O)c1cc2cccnc2n(Cc2ccccc2)c1=O | · | · | 8 | 106
Cc1c(-c2ccc(Cl)cc2)c(=O)oc2c(CN3CCOCC3)c(O)ccc12 | 97 | 92 | · | 100
CCc1c(O)nc(SCc2ccc(F)cc2)[nH]c1=O | 87 | 80 | 2 | 102
O=C(Cn1cc(S(=O)(=O)Cc2ccccc2F)c2ccccc21)Nc1ccc(F)c(Cl)c1 | 71 | 93 | · | 105
O=C(COc1ccccc1)NCC(=O)N1CCCC1 | 104 | 93 | 3 | ·
O=C(CSc1nnc2[nH]c(=O)ccn12)NCc1ccc2c(c1)OCO2 | 98 | 82 | -36 | 106

Reformatted as comma-separated lines: part of the list above
structure,Sa growth 42C,Sa growth 42C second temp,HCMV NEC inh,GIV-Gai inh
CCCCNC(=O)c1cn(C)c2ccc(S(=O)(=O)N(CC)CC)cc2c1=O,76,88,-18,109
CS(=O)(=O)c1ccccc1C(=O)Nc1ccc(C#N)cc1,115,100,-4,·
O=C(Cn1cc(S(=O)(=O)Cc2ccccc2F)c2ccccc21)Nc1ccc(F)c(Cl)c1,71,93,·,105
O=C(CSc1nnc2[nH]c(=O)ccn12)NCc1ccc2c(c1)OCO2,98,82,-36,106
CC(C)OCCCNC(=O)c1ccc2c(c1)NC(=O)c1ccccc1S2,129,79,-42,104

(further entries)
SMILES | Sa growth 42C | Sa growth 42C second temp | HCMV NEC inh | GIV-Gai inh
O=C(Nc1ccc(F)cc1F)c1cc2nc(-c3ccco3)cc(C(F)(F)Cl)n2n1 | 96 | 100 | · | 113
COc1ccc(CCNC(=O)C(C)n2nc(C)c3sc4ccccc4c3c2=O)cc1OC (stereo unspecified) | 93 | 92 | 11 | 102
COC(=O)c1ccccc1NC(=O)CSc1nc2ccc(OC)cc2[nH]1 | · | · | -10 | 95
Cc1cc(C)n2c(SCC(=O)O)nnc2n1 | · | · | -6 | 101
COc1ccccc1CNC(=O)c1cc2c(-c3ccc(Cl)cc3)nn(C)c2s1 | 101 | 106 | 18 | 106
COC(=O)Cc1nc(N2CCN(c3ccc(OC)cc3)CC2)c2c(C)c(C)sc2n1 | · | · | -8 | 114
CC(C)C(C)(C#N)NC(=O)CSc1nnc(-c2cccc(S(=O)(=O)N3CCOCC3)c2)n1-c1ccc(F)cc1 (stereo unspecified) | 82 | 86 | -30 | ·
COc1ccc(CCn2c(C)cc(C(=O)CSc3nnnn3-c3ccccc3)c2C)cc1 | 97 | 86 | -14 | ·
CCOc1ccc(-c2cc(C(=O)OC)on2)cc1 | 116 | 95 | -79 | 107
COc1ccc(NC(=O)c2nn(C)c3c2CS(=O)(=O)c2ccccc2-3)cc1Cl | 99 | 86 | -12 | 96
CCOC(=O)c1ccc(NC(=O)c2cc3c(s2)CCC3)cc1 | 119 | 83 | -25 | ·
CCOCC(=O)Nc1cc(Cl)c(NC(=O)COCC)c(Cl)c1 | 107 | 86 | -35 | ·
CCOC(=O)N1CCN(Cc2ccccn2)CC1 | 103 | 75 | -3 | 100
C=CCn1c(SCC(=O)Nc2ccc(S(N)(=O)=O)cc2)nnc1-c1ccc(N)cc1 | · | · | -25 | 98
COc1ccc(OCC(O)Cn2c(N3CCCCCC3)nc3c2c(=O)n(C)c(=O)n3C)cc1 (stereo unspecified) | · | · | -10 | 96
COc1ccc(CNC(=O)C2=CC(c3cccc(OC)c3)=NS(=O)(=O)N2C)cc1 | 96 | 80 | -42 | 98
COC(=O)c1scc2c(OC)cc(C(F)(F)F)nc12 | 103 | 95 | -6 | 107
Cc1nn(C)c(C)c1Sc1ccc(Br)cc1 | 88 | 83 | -19 | 99
CCCC(=O)Nc1nc2c(s1)CC(C(C)(C)C)CC2 (stereo unspecified) | 73 | 56 | -11 | 101
CCCn1c(SCC(=O)O)nc2ccccc21 | · | · | -8 | 100
Cc1cc(C(=O)NC(C)C)c2c(=O)n(C)c(=O)n(C)c2n1 | · | · | -14 | 102
Cc1cc(C)nc(OC(=O)c2ccc(Cl)cc2Cl)n1 | · | · | -6 | 99
CC(=O)N(Cc1ccccn1)Cc1ccco1 | 82 | 81 | -7 | 113
CN(C)S(=O)(=O)N1CCN(Cc2ccccc2)CC1 | 114 | 95 | -21 | 104
CCN(CC)CCNc1nc2c(c(=O)n(C)c(=O)n2C)n1Cc1ccc(Cl)cc1Cl | · | · | -32 | 100
Cc1ccc(-c2nnc(N3CCN(C)CC3)c3ccccc23)cc1C | · | · | -6 | 106
CCC(CO)Nc1ncnc2onc(-c3ccc(F)cc3)c12 (stereo unspecified) | 95 | 89 | -8 | 99
O=S(=O)(NCCc1csc(-c2ccccc2)n1)c1ccccc1 | 96 | 84 | -32 | 106
CCCCN1C2=NC(=O)CN2c2ccccc21 | 88 | 91 | -15 | 104
CCOC(=O)N1CCN(C(=O)C(NC(=O)c2ccc(C34CC5CC(CC(C5)C3)C4)cc2)C(C)C)CC1 (stereo unspecified) | 99 | 93 | · | 96
CC1CCN(S(=O)(=O)c2ccc3c(c2)CCC(=O)N3CC(=O)NCCN2CCOCC2)CC1 | · | · | -9 | 107
FC(F)(F)c1nc(Sc2nnc(C3CC3)o2)c2ccccc2n1 | 99 | 94 | -23 | ·
CCOC(=O)C1=C(S)N(C#N)C(=O)C(C#N)C12CCNCC2 (stereo unspecified) | 116 | 97 | -6 | ·
NC(=O)C1CCN(Cc2nc3cc(Cl)ccc3c(=O)[nH]2)CC1 | 95 | 77 | -4 | ·
CCc1cccc(NC(=O)CCNS(=O)(=O)c2cccc3nonc23)c1 | 115 | 103 | -55 | 113
COc1ccc2c(c1)c1c(c(=O)n(Cc3ccccc3)c(=O)n1Cc1ccccc1)n2C | 116 | 89 | · | 104
COCC(C)N=C1NC(=O)C(CC(=O)Nc2cc(C)c(Cl)cc2OC)S1 (stereo unspecified) | 102 | 102 | -8 | ·
O=C(CSC1=Nc2ccccc2C2=NC(Cc3ccccc3)C(=O)N12)Nc1ccccc1C(F)(F)F (stereo unspecified) | 108 | 89 | · | 101
CCc1ccccc1NC(=O)N(C)CCc1c(C)nn(C)c1C | 96 | 93 | 0&-13 | 107&94
CC1(C)CC(=O)c2cc(OCC(=O)NCc3cccnc3)ccc2O1 | 94 | 89 | -28 | 98

Some of the entries above in a different format.
Values run as follows: Sa growth 42C, Sa growth 42C second temp, HCMV NEC inh, GIV-Gai inh
- Cc1ccc(-c2nnc(N3CCN(C)CC3)c3ccccc23)cc1C
→ ·, ·, -6, 106
- CCCCN1C2=NC(=O)CN2c2ccccc21
→ 88, 91, -15, 104
- CC1(C)CC(=O)c2cc(OCC(=O)NCc3cccnc3)ccc2O1
→ 94, 89, -28, 98
- COCC(C)N=C1NC(=O)C(CC(=O)Nc2cc(C)c(Cl)cc2OC)S1 (stereo unspecified)
→ 102, 102, -8, ·
- CCOC(=O)N1CCN(C(=O)C(NC(=O)c2ccc(C34CC5CC(CC(C5)C3)C4)cc2)C(C)C)CC1 (stereo unspecified)
→ 99, 93, ·, 96
- FC(F)(F)c1nc(Sc2nnc(C3CC3)o2)c2ccccc2n1
→ 99, 94, -23, ·

Continued.
SMILES | Sa growth 42C | Sa growth 42C second temp | HCMV NEC inh | GIV-Gai inh
CC1CCCN(c2nc3ncnc(SCC(=O)NC4CCCC4)c3s2)C1 (stereo unspecified) | · | · | -2 | 108
NC(=O)CNC(=O)COc1ccccc1 | 108 | 84 | -4 | 102
CCC(CC)C(=O)Nc1nonc1-c1ccccc1 | 84 | 82 | -26 | 105
COc1ccccc1OCCCCn1c(-c2ccc(Cl)cc2)nc2ccccc2c1=O | 101 | 93 | 26 | 103
c1cc2c(cc1C1CCCCC1)c1c3n2CCNC3CCC1 (stereo unspecified) | · | · | -2 | 115
COC(=O)C1CCCc2c1[nH]c1ccc(Cl)cc21 (stereo unspecified) | 59 | 69 | 5 | 100
O=c1ccccn1Cc1ccccc1F | 90 | 90 | · | 100
N#C/C(=C\c1ccc(-c2cccc(C(=O)O)c2)o1)C(=O)NC1CCCCC1 | 89 | 60 | -91 | 103
Cc1ccc(Nc2nnc(C(C)(C)C)c(=O)[nH]2)c(C)c1 | 94 | 92 | -14 | 99
CC1CCN(C(=O)c2ccccc2NC(=O)c2cccnc2)CC1 | 100 | 97 | -33 | 103
CCN1CCCC1CNS(=O)(=O)c1cc(-c2cc(C)no2)ccc1C (stereo unspecified) | 95 | 82 | 0 | 100
Cc1nc2scc(C)n2c(=O)c1S(=O)(=O)N1CCN(c2cccc(C(F)(F)F)c2)CC1 | 100 | 95 | -4 | 106
Cc1ccc(C(=O)NCC(=O)OCc2ccc(Cl)c(Cl)c2)cc1 | 116 | 93 | -20 | ·
COc1ccc(Cn2cc(S(=O)(=O)c3ccc(C)cc3)c(=O)c3cc(F)ccc32)cc1 | 105 | 89 | -18 | 109
O=C(NCCc1c[nH]c2ccc(Cl)cc12)c1ccc(-n2nnc3cccnc32)cc1 | · | · | -30 | 119
COc1cccc(NC(=O)N2CCCN(C(=O)c3nonc3N)CC2)c1 | · | · | -6 | 100
COc1cccc(NC(=O)C2CCCN(S(=O)(=O)c3cc(-c4noc(C(C)C)n4)sc3C)C2)c1 (stereo unspecified) | · | · | -11 | 103
COc1ccc(CN2COc3ccc4c(oc(=O)c5ccccc54)c3C2)cc1OC | 105 | 84 | -6 | 94
NC(=O)NC1CCS(=O)(=O)C1 (stereo unspecified) | 117 | 83 | -7 | 105
CCc1ccc2[nH]c(=O)c(CNCCO)cc2c1 | 91 | 80 | -37 | 102
COCCOC(=O)C1=C(C)NC2=C(C(=O)CC(c3ccccc3)C2)C1c1cc2c(cc1Cl)OCO2 (stereo unspecified) | · | · | 9 | 107
O=C(CSc1ccc(Br)cc1)NC1CCCC1 | 90 | 100 | 0 | ·
CC(C)NC(=O)NNc1ccc(-c2csnn2)cc1 | 100 | 97 | -17 | 106
COc1ccc(-c2noc(CSCC(=O)N3CCC(C)CC3)n2)cc1OC | · | · | 0 | 97
CCN(CC)S(=O)(=O)c1cc(-c2n[nH]c(=O)c3ccccc23)ccc1C | · | · | -5 | 106
COC(=O)C1=C(C)N=c2s/c(=C3\C(=O)Nc4ccccc43)c(=O)n2C1c1ccccc1 (stereo unspecified) | 97 | 88 | -24 | 100
Cc1occc1C(=O)NC1CCCc2ccccc21 (stereo unspecified) | 103 | 85 | -13 | 104
CCc1ccc(Cc2cnc(NC(=O)c3ccc4c(c3)CC(c3ccccc3)OC4=O)s2)cc1 (stereo unspecified) | 92 | 90 | -6 | 104
COC(=O)c1cnn(-c2ccccc2)c1C=Nc1ccc(C)cc1 | 101 | 99 | -3 | 100
COc1ccccc1C(=O)OCC(=O)N(C)Cc1ccccc1 | 94 | 93 | -17 | ·
O=C(NCc1ccc(Cl)cc1)c1cccnc1SC(F)F | 110 | 104 | -24 | ·
CCCCNC(=O)C1CCCN(S(=O)(=O)c2c(C)noc2/C=C/c2cccs2)C1 (stereo unspecified) | 97 | 83 | -35 | 95
Cc1nc2sccn2c(=O)c1S(=O)(=O)NCC(C)c1ccccc1 (stereo unspecified) | 86 | 92 | -9 | 107
CC1=C(c2ccc(C)cc2)S(=O)(=O)N=C1N1CCCCC1C (stereo unspecified) | 99 | 98 | -12 | 104
O=C(OCC(F)(F)C(F)F)c1ccc(C(=O)OCC(F)(F)C(F)F)cc1 | 99 | 100 | -2 | 101
Cc1cccc(C)c1NS(=O)(=O)c1cn(C)cn1 | · | · | 7 | 102
O=C(Nc1ccc(F)c(Cl)c1)c1cc(-c2ccncc2)n[nH]1 | · | · | 3 | 101
O=C(O)c1ccc(=O)n(CCOc2ccccc2)n1 | 107 | 91 | -7 | ·
Cc1cc(Oc2ccc3oc4ccccc4c3c2)n2ncnc2n1 | 105 | 91 | -12 | ·
CCCCOc1cccc(C2Nc3ccccc3NC3=C2C(=O)CC(C)(C)C3)c1 (stereo unspecified) | · | · | 20 | 104
